# Assay outcomes as filed in PubChem BioAssay.
# T. gondii = T. gondii ME49Luc in HeLa cells, luciferase assay, 72 h, no IFN-y (AID 1259421) | activity change, negative = inhibition, % | hit rate 9.6% among 6,400 | T. gondii ME49Luc in HeLa, luciferase, 72 h, no IFN-y; hits give low values; reference of the scale and settings of repeat entries not given here; many of its hits are not listed in these tables;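 active means activity change below -70%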;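 further: about 20 µM from a 10 mM stock diluted 500-fold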
# The depositor's hits bear a star; & = joins results of further samples; ! = not active in a repeat. This is a subset (hit frequency here may not be typical).
SMILES,T. gondii
CCOc1nc2cccc(C(=O)O)c2n1Cc1ccc(-c2ccccc2-c2noc(=O)[nH]2)cc1,15
CC(=O)N(C)C1(c2ccccc2)CCN(CCC[C@]2(c3ccc(Cl)c(Cl)c3)CCCN(C(=O)c3ccccc3)C2)CC1,-7
CCCCN(CCCC)CCCOC(=O)c1ccc(N)cc1,-10&10
CCN(CC)CCN(Cc1ccc(-c2ccc(C(F)(F)F)cc2)cc1)C(=O)Cn1c(SCc2ccc(F)cc2)nc(=O)c2c1CCC2,-78*
C=CCN1C[C@H](C(=O)N(CCCN(C)C)C(=O)NCC)C[C@@H]2c3cccc4[nH]cc(c34)C[C@H]21,-7&12
Cc1c(-c2ccnn2C)cc(C(=O)NCc2ccc(S(C)(=O)=O)cn2)c(=O)n1-c1cccc(C(F)(F)F)c1,23
COC(=O)C1=C(C)NC(C)=C(C(=O)OCCN2CCN(C(c3ccccc3)c3ccccc3)CC2)C1c1cccc([N+](=O)[O-])c1 (stereo not given),-78*!
CCn1cc(C(=O)O)c(=O)c2cc(F)c(N3CCNC(C)C3)c(F)c21 (stereo not given),15&8
CCCCCCCCCCCCCCC[C@@H](O)[C@@H](N)CO,-69
N#C/C(=C1/SCC(c2ccccc2Cl)S1)n1ccnc1 (stereo not given),13
CCC(=O)Nc1cccc(Oc2nc(Nc3ccc(N4CCN(C)CC4)cc3OC)ncc2Cl)c1,7
O=C(O)Cc1sc(-c2ccccc2)nc1-c1ccc(Cl)cc1,8
CC(=O)N[C@@H](Cc1ccccc1)C(=O)O,16
O=C1NC(=O)C2(CCOc3ccc(F)cc32)N1 (stereo not given),17
COc1cc(CCc2cc(NC(=O)c3ccc(N4C[C@@H](C)N[C@@H](C)C4)cc3)n[nH]2)cc(OC)c1,-81*
CN(C(=O)c1c(O)c2ccccc2n(C)c1=O)c1ccccc1,8&19
COc1cc(N)c(Cl)cc1C(=O)N[C@@H]1CCN(CCCOc2ccc(F)cc2)C[C@@H]1OC,6
Cc1c(C)n(Cc2ccccc2)c2ccc(C(=O)OCCN(C)C)cc12,11
CN(c1nccc(=O)[nH]1)C1CCN(c2nc3ccccc3n2Cc2ccc(F)cc2)CC1,-8
CN(C)CCCSc1ccccc1NC(=O)/C=C/c1ccccc1,4&5&13
CCc1ccccc1OC[C@@H](O)CN[C@H]1CCCc2ccccc21,16&23
C[C@H]1[C@H](C)CC[C@]2(C(=O)O)CC[C@]3(C)C(=CC[C@@H]4[C@@]5(C)C[C@@H](O)[C@H](O)[C@@](C)(CO)[C@@H]5CC[C@]43C)[C@H]12,-6&-67
CCC[C@H](Nc1nc(-c2ccc(NC(=O)NCC)c(OC)c2)ncc1C)c1cccnc1,-76*
Cn1ccc2cc3c(cc21)CCN3C(=O)Nc1cccnc1,4&104
COCCOc1ccc2c(c1)ncn2-c1ccc2cccc(N3CCC(N)CC3)c2n1,-90*
# More structures follow.
SMILES,T. gondii
O=C(O)c1ccc(Nc2ncc3c(n2)-c2ccc(Cl)cc2C(c2c(F)cccc2F)=NC3)cc1,-36
O=C(O)c1ccc(-n2nc(-c3ccccc3O)nc2-c2ccccc2O)cc1,-30
CCCCC(=O)O[C@]1(C(=O)CO)[C@@H](C)CC2C3CCC4=CC(=O)C=C[C@]4(C)[C@@]3(F)C(O)C[C@@]21C (stereo not given in full),1
CCOCc1cc(OC)c(-c2ccc(C[C@H](NC(=O)c3c(F)cccc3F)C(=O)O)cc2)c(OC)c1,-4
COc1cc(C=O)ccc1O,10
C[C@@H](Oc1ccc2[nH]nc(/C=C/c3cnn(CCO)c3)c2c1)c1c(Cl)cncc1Cl,-81*
O=C(NCCCN1CCOCC1)c1ccc(Cl)cc1,11
CC(C)NNC(=O)c1ccncc1,8&10
COc1ccc(-c2cc(C(F)F)nn2-c2ccc(S(N)(=O)=O)cc2)cc1F,12
Cc1nnc(-c2ccc3occ(-c4ccc(S(C)=O)cc4)c3c2)o1 (stereo not given),1
CCN(CCCCOC(=O)c1ccc(OC)c(OC)c1)C(C)Cc1ccc(OC)cc1 (stereo not given),5&4
CNS(=O)(=O)CCc1ccc2[nH]cc(C3CCN(C)CC3)c2c1,5
CCCCCCCCCCCCCCCC[N+](C)(C)Cc1ccccc1,-4
CCCSc1nc(N[C@@H]2C[C@@H]2c2ccc(F)c(F)c2)c2nnn([C@@H]3C[C@H](OCCO)[C@H](O)[C@H]3O)c2n1,5
CCN(CC)CC1CCCCN1CC(=O)N1c2ccccc2C(=O)Nc2cccnc21 (stereo not given),8&6
O=[N+]([O-])c1cncn1CCN1CCOCC1,24
O=C(NC1CCN(CCc2c[nH]c3ccccc23)CC1)c1ccccc1,11
Cc1c(C(=O)Nc2ccc(N3C[C@@H](C)O[C@@H](C)C3)nc2)cccc1-c1ccc(OC(F)(F)F)cc1,16
COCCOc1ccc(N2CCN(CCn3ncc4c3nc(N)n3nc(-c5ccco5)nc43)CC2)cc1,-7
Nc1ncnc2c1c(-c1cccc(OCc3ccccc3)c1)cn2C1CC(CN2CCC2)C1 (stereo not given),-81*
CCCOc1ccc2nc(NC(=O)OC)[nH]c2c1,-65&-5&-40
Cc1cc(Cn2cnc3c2C[C@@H](C(=O)O)N(C(=O)C(c2ccccc2)c2ccccc2)C3)ccc1N(C)C,25
CC1(C)CC(=O)c2c(C(F)(F)F)nn(-c3ccc(C(N)=O)c(NC4CCC(O)CC4)c3)c2C1 (stereo not given),-82*
CNCc1ccc(-c2[nH]c3cc(F)cc4c3c2CCNC4=O)cc1,14
Cc1ccccc1OCC(O)CO (stereo not given),40

# 4 compounds from above, arranged by molecular weight, descending.
SMILES,T. gondii
O=C(O)c1ccc(Nc2ncc3c(n2)-c2ccc(Cl)cc2C(c2c(F)cccc2F)=NC3)cc1,-36
CCCCCCCCCCCCCCCC[N+](C)(C)Cc1ccccc1,-4
CNS(=O)(=O)CCc1ccc2[nH]cc(C3CCN(C)CC3)c2c1,5
COc1cc(C=O)ccc1O,10

# Entries shown so far that contain a COOH group (nine):
SMILES,T. gondii
CCOc1nc2cccc(C(=O)O)c2n1Cc1ccc(-c2ccccc2-c2noc(=O)[nH]2)cc1,15
CCn1cc(C(=O)O)c(=O)c2cc(F)c(N3CCNC(C)C3)c(F)c21 (stereo not given),15&8
O=C(O)Cc1sc(-c2ccccc2)nc1-c1ccc(Cl)cc1,8
CC(=O)N[C@@H](Cc1ccccc1)C(=O)O,16
C[C@H]1[C@H](C)CC[C@]2(C(=O)O)CC[C@]3(C)C(=CC[C@@H]4[C@@]5(C)C[C@@H](O)[C@H](O)[C@@](C)(CO)[C@@H]5CC[C@]43C)[C@H]12,-6&-67
O=C(O)c1ccc(Nc2ncc3c(n2)-c2ccc(Cl)cc2C(c2c(F)cccc2F)=NC3)cc1,-36
O=C(O)c1ccc(-n2nc(-c3ccccc3O)nc2-c2ccccc2O)cc1,-30
CCOCc1cc(OC)c(-c2ccc(C[C@H](NC(=O)c3c(F)cccc3F)C(=O)O)cc2)c(OC)c1,-4
Cc1cc(Cn2cnc3c2C[C@@H](C(=O)O)N(C(=O)C(c2ccccc2)c2ccccc2)C3)ccc1N(C)C,25

# Going on with the list.
SMILES,T. gondii
COc1ccc(C(=O)c2ccccc2)c(O)c1,32&29
CCN(CC)CCOc1ccc(Cc2ccccc2)cc1,14&6
CC[C@@H]1OC(=O)C[C@@H](O)[C@H](C)[C@@H](O[C@@H]2O[C@H](C)[C@@H](O)[C@H](N(C)C)[C@H]2O)[C@@H](CCN2C[C@H](C)C[C@H](C)C2)C[C@@H](C)C(=O)/C=C/C(C)=C\[C@@H]1CO[C@@H]1O[C@H](C)[C@@H](O)[C@@H](OC)[C@H]1OC,18
CN(C)C(=O)c1cc2cnc(Nc3ccc(N4CCNCC4)cn3)nc2n1C1CCCC1,18
CC(Cc1cccc(C(F)(F)F)c1)NCCOC(=O)c1ccccc1 (stereo not given),27&34
CNC(=O)c1cc(Oc2ccc(NC(=O)Nc3ccc(Cl)c(C(F)(F)F)c3)c(F)c2)ccn1,-84*
CC(C)(Cc1ccc2ccccc2c1)NC[C@@H](O)COc1cccc(Cl)c1C#N,-7
